# Beta2AR agonist: beta2AR agonists driving receptor internalization, primary screen, cell-based, FAP fluorogen, flow cytometry; hit rate 0.43% among 340,000; Am2.2-beta2AR cells; reference of the scale not given here; response, % (test concentration not listed); Beta-2 adrenergic receptor (Homo sapiens), P07550;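 active means response above a set limit, near 3 SD of response in nonfluorescent compounds, cut at about 42% in these data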;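 further: stock transfer was 100 nL into about 11 µL; a reference agonist was the positive control; negative values mostly stem from fluorescent compounds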
# Target sequence (P07550 whole entry, looked up): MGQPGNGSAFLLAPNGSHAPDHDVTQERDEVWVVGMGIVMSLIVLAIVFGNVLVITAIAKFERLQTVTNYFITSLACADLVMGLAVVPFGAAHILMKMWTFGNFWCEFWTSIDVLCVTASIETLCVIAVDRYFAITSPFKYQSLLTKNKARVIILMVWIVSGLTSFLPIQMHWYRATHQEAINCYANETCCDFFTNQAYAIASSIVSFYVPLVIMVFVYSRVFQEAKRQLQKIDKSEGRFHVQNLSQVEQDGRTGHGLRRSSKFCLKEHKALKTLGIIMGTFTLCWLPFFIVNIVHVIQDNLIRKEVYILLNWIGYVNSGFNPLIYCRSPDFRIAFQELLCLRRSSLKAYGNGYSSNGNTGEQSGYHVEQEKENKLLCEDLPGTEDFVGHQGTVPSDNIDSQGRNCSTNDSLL
# LANA-H2A inh: blockers of LANA interaction with H2A/H2B – biochemical, FP readout, HTS, primary screen. Protein LANA1 (Human herpesvirus 8 type P (isolate GK18)), Q9QR71. cell-free LANA-H2A/H2B peptide, fluorescence polarization. inhibition, % (no concentration beside the values). hit rate 0.6% among 320,000; in the data active means inhibition mostly above about 10%, no sharp cut-off; inactive means mostly below about 6.7%;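 further: stock transfer was 7.5 nL into about 10 µL; 0% = median of vehicle wells and 100% = median of positive control wells; one replicate is shown; the record names a cut of 25% in any replicate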
# A1 inh: caspase 3/7 activation in MEF A1-2A-BIM cells, primary screen, A1 inhibitor project, cell-based, luminescence, HTS; Caspase-Glo 3/7 luminescence, 3 h; percent of clofoctol response, vehicle zero; caspase activation, % (test concentration not listed); hit rate 0.066% among 330,000;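 active means over half of replicate activation scores above 10%, or exactly half above 10 with the replicate mean above 10; inconclusive means replicate mean below 10 yet half the replicates above 10; inactive means over half of replicates below 10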;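 further: wells of about 30 µL received 50 nL stock; many hits fall short of the cut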
# RanGTP-Impb inh: inhibitors of RanGTP-importin-beta interaction, primary screen, biochemical, FRET, CFP-Ran, YFP-importin-beta, homogeneous; inhibition, % (test concentration not listed); cell-free CFP-Ran/YFP-importin-beta FRET ratio; Ran GTPase (GTP-bound) - importin-beta complex; hit rate 1.1% among 300,000; AID 2216, 2009;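 active means most replicates above 15%; inconclusive means exactly half above 15%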;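 further: 0% = DMSO wells and 100% = Ran loaded with GDP instead of GTP; wells of about 40 µL received 100 nL stock; the first replicate is given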
# Beta cell apopt: inhibitors of cytokine-induced beta cell apoptosis, primary screen, luminescence | hit rate 0.8% among 300,000 | INS-1E cytokine-induced death, ATP luminescence, 48 h; percent of positive-control rescue, neutral wells zero | AID 435005, 2010 | protection from apoptosis, % (no concentration beside the values);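 active means all replicates at 75% or more, or half of them and the mean; inconclusive means half reach 75% but not the mean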;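 further: 0% = cytokine-treated negative control wells and 100% = positive control rescue; higher means more ATP so stronger rescue from cytokine killing; wells of about 40 µL received 100 nL stock; the first replicate is given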
# Calb FLC: C. albicans growth inhibition with fluconazole, primary screen, CaCi-2 strain, Alamar Blue fluorescence; AID 1979, 2009; C. albicans CaCi-2 (fluconazole-resistant clinical isolate) + fluconazole, 48 h; growth inhibition, % (concentration not given with the values); hit rate 0.57% among 300,000;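 active means most replicates above 75%; inconclusive means exactly half above 75%; inactive means most below 75%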;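 further: all wells also contain fluconazole at 8 µg/ml as a sub-toxic cotreatment; 0% = median of DMSO wells and 100% = median of geldanamycin control wells; wells of about 8 µL received 7.5 nL stock; the first replicate is given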
# T cruzi repl: inhibitors of intracellular T. cruzi growth, primary screen, luminescence, NIH3T3 host cells; T. cruzi beta-gal in NIH3T3, 90 h; inhibition, % (concentration not given with the values); hit rate 1.4% among 300,000; AID 1885, 2009;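 active means mean inhibition across valid replicates above about 55%, limit read from the data; inconclusive means mean below that limit but half or more replicates reach it; inactive means mean below it, under half of replicates reach it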;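 further: signal also drops with host cell toxicity which is not excluded here; 0% = plate median of DMSO wells and 100% = zero luminescence signal; higher percent means less beta-gal luminescence so fewer parasites; stock transfer was 50 nL into about 50 µL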
# UCH37 DUB inh: inhibitors of human UCH37 deubiquitinase, primary screen, biochemical, Ub-AMC cleavage, fluorescence | Ubiquitin carboxyl-terminal hydrolase isozyme L5 (Homo sapiens), Q9Y5K5 | purified proteasome/UCH37 | inhibition, % (concentration not given with the values) | hit rate 0.33% among 330,000;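 active means mean of two replicates above 20%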;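 further: 0% = compound-free wells with enzyme and 100% = wells lacking proteasome; stock transfer was 100 nL into about 20 µL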
# Target sequence (Q9Y5K5 whole entry, looked up): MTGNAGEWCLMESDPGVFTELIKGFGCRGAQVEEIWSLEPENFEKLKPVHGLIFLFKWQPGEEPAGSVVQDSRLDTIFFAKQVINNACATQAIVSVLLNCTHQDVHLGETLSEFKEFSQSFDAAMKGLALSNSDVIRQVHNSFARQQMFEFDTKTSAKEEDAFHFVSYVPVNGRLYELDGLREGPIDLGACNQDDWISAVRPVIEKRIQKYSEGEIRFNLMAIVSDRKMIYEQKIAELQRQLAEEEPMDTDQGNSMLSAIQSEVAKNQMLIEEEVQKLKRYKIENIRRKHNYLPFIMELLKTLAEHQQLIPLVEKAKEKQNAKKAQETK
#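 Schedule: 30 min plus 25 min, room temperature / Material: human UCH37 within purified proteasomes / Technique: AMC fluorescence intensity at 355/460 nm / Buffer or medium: pH 7.4 Tris-HCl (50 mM) with ovalbumin, ATP-MgCl2, DTT / Controls: wells without proteasome as full block, compound-free enzyme plus substrate as uninhibited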
# Active calls of the source: *; i = inactive; u = inconclusive; x = not tested or not shown.
SMILES	Beta2AR agonist	LANA-H2A inh	A1 inh	RanGTP-Impb inh	Beta cell apopt	Calb FLC	T cruzi repl	UCH37 DUB inh
Cc1ccccc1OCCCCCNCCO	9	x	x	4.3	x	-10	-2	4.0
COc1ccccc1N(CC(=O)N/N=C/c1ccccc1C(=O)O)S(C)(=O)=O	-6	-4.1	0.1	-2.3	1	4	-5	x
c1ccc(C(c2nnnn2Cc2ccco2)N2CCN(c3nc4ccccc4s3)CC2)cc1 (configuration not stated)	15	2.8	-0.3	0.1	10	-11	17	3.2
O=C(NCc1ccco1)c1cc(-c2ccco2)on1	1	0.5	-0.4	-2.4	1	-11	-14	-0.1
Cc1ccc(NC(=O)CSc2nc3ncc(Br)cc3[nH]2)cc1C	-1	1.7	0.1	3.5	11	-7	-2	1.6
CC(Oc1ccc(F)cc1)C(=O)Nc1ccc2ccccc2c1 (configuration not stated)	-1	-4.2	-0.5	5.4	6	8	-5	-0.6
Cc1ccccc1NC(=O)Cc1nc(COC(=O)CCc2ccccc2)cs1	1	0.1	0.1	x	-1	x	x	2.6
C/C(=N\NC(=O)c1nn(C)cc1Br)c1cccc(NC(=O)c2ccncc2)c1	-3	1.6	-0.3	-15	4	-1	13	x
CCc1cc2c(=O)n(-c3ccc(C)cc3)cnc2s1	-14	-2.1	-1.4	-2.9	-1	-1	3	-1.9
O=C(NC(=S)NCc1ccc(F)cc1)c1ccccc1	-11	x	-0.2	0.5	-1	-1	16	4.3
COc1cccc(C(=O)N/N=c2/oc3ccccc3cc2C(N)=O)c1	-5	-1.6	-0.3	0.3	-1	u	-8	x
COc1ccc(CN2CCC(=O)N([C@H](CO)c3ccccc3)CC2)cc1OC	2	3.3	0.0	1.2	-4	-9	-30	-1.4
O=C(CCc1ccccc1)Nc1ccccc1C(F)(F)F	9	32*	-1.4	4.1	-3	-3	-19	2.8
O=C1CC(N(CCc2ccccc2)C(=S)Nc2ccccc2)C(=O)N1c1ccccc1 (configuration not stated)	4	0.3	0.7	-2.9	4	3	36	5.0
Cc1cccc(Nc2nc(N)nc(CN3CCC(C)CC3)n2)c1C	17	-2.1	0.2	1.9	-11	0	-2	-1.9
O=C(CNC(=O)N1CC(=O)Nc2ccccc21)NCc1cccc(Cl)c1	-3	-4.2	0.2	2.2	x	-6	9	4.3
COc1cccc(OCc2cc(C(=O)NCCc3cccc(C)n3)no2)c1	-2	-1.7	-0.1	1.4	2	-2	14	x
Cc1ccccc1NC(=O)Cc1nc(COC(=O)c2ccc(Cl)nc2)cs1	-1	0.5	-1.2	-0.8	x	-8	19	4.1
Cc1onc(-c2ccccc2)c1C(=O)NC(C)c1ccc2c(c1)OCO2 (configuration not stated)	-2	2.7	0.6	0.8	-11	5	9	4.1
O=C(COc1ccc(Cl)cc1Cl)NCCCNC(=O)c1cnccn1	0	-1.6	0.3	5.0	-1	13	-9	0.7
Cc1cc(=O)c2ccccc2n1Cc1ccccc1	-9	-16	-0.1	5.3	13	-12	-29	1.6
CCCCNC(=O)C1CC(=O)N(C2CCCC2)C1 (configuration not stated)	2	-5.2	0.6	5.8	-2	-5	-8	0.4
COc1ccc(C(=O)NCCCNC(=O)c2cccnc2)cc1Br	-7	5.1	-0.9	-3.4	26	-1	10	5.0
O=C(COC(=O)c1ccc(Cl)c(S(=O)(=O)NCc2ccccc2)c1)NC1CC1	-8	0.0	-0.3	x	-1	x	x	0.1
CC(=O)C1=C(C)NC(SCC(N)=O)=C(C#N)C1CC(C)C (configuration not stated)	3	-9.7	0.3	-0.5	1	13	1	2.9
O=C(CSc1nnc(-c2ccc3c(c2)OCO3)n1-c1ccccc1)c1ccccc1	-9	-1.3	-0.1	1.9	-12	1	6	2.8
C=C(C)CN(CC)C(=O)CC1C(=O)NCCN1Cc1c(F)cccc1Cl (configuration not stated)	-1	-0.8	-0.3	9.8	-12	12	1	2.2
Cc1cccc(C(=O)NCC(=O)N2CC(=O)Nc3ccccc32)c1	-12	2.0	1.6	4.6	0	-2	-1	5.0
O=C(CSc1nccc(=O)[nH]1)NCc1ccc2c(c1)OCO2	-8	-2.0	-1.1	2.9	-9	-7	-12	1.8
COc1ccc(NC(=O)N2CCCc3ccccc32)cc1	-6	2.5	x	2.1	3	-6	3	2.0
C=CCN=C1S/C(=C/c2cccc([N+](=O)[O-])c2)C(=O)N1CC=C	-4	5.0	0.0	1.5	x	6	14	2.2
CCOC(=O)CNC(=S)N(Cc1ccccc1F)C1CCCCC1	2	i	0.3	u	-6	6	6	4.1
Cc1ccc([N+](=O)[O-])cc1N=C(c1cccc(Br)c1)N1CCOCC1	-4	0.3	1.1	-1.0	4	-5	21	5.6
CC(Sc1nc(-c2ccccc2)cc(C(F)(F)F)n1)C(=O)N1CCCCC1 (configuration not stated)	99*	1.6	3.5	0.9	1	-9	27	-0.2
COc1ccc(-c2cc(-c3ccc(F)cc3)nc(N3CCN(C)CC3)n2)cc1	24	0.2	0.1	5.0	x	-9	42	-22
COCCNC(=O)CCc1ccc(S(=O)(=O)Nc2ccc(C)cc2)cc1	5	3.7	1.0	1.0	0	6	-12	0.8
COc1ccccc1OCC(O)CN1CCN(C(=O)c2ccccc2)CC1 (configuration not stated)	-2	1.3	1.4	-2.5	2	-3	-13	4.6
CN(C(=O)C1CCCC1)C1CCS(=O)(=O)C1 (configuration not stated)	-5	5.9	0.4	0.4	-4	0	-3	-0.7
Cc1ccc(NS(=O)(=O)c2ccc(NC(=O)C3CCCO3)cc2)cc1 (configuration not stated)	-4	-1.7	0.0	-1.6	x	5	1	x
Cn1c2c(c(=O)n(C)c1=O)C(NS(=O)(=O)c1ccccc1)(C(F)(F)F)C(=O)N2 (configuration not stated)	2	4.3	u	-4.3	-1	6	-5	0.1
Cc1nc(SCC(=O)NC(C)c2ccccc2)c2oc3ccccc3c2n1 (configuration not stated)	-13	3.1	-0.5	-9.5	-1	-1	11	2.9
CCOC(=O)c1cnn(-c2ccccc2)c1N	-14	2.0	-2.0	-1.0	-8	-12	-37	1.6
Cc1nc(-c2ccc(C(=O)Nc3ccccc3F)cc2)cs1	6	1.8	-8.3	3.1	-7	8	-11	4.4
CCCCCC(=O)N1CC2(CC(c3cccc(NC(=O)c4ccccc4)c3)=NO2)C[C@@H]1C(N)=O (some centres not stated)	-9	1.1	0.1	7.5	4	-3	4	1.6
CC(=O)c1ccc(OCCCC(=O)Nc2cc(S(=O)(=O)N(C)C)ccc2C)cc1	-5	0.2	0.2	1.2	-3	15	7	3.4
O=S(=O)(c1ccc(Cl)cc1)c1cnc2ccccc2n1	4	-4.0	0.8	-6.2	-29	-50	-41	1.4
CN(Cc1ccccc1)Cc1nc2scc(-c3ccccc3)c2c(=O)[nH]1	3	-0.8	-0.1	7.2	-6	-22	4	0.5
O=C(Nc1ccccc1)Nc1ccc(-n2ccc(C(F)(F)F)n2)cc1	4	1.2	-6.9	0.9	116*	-2	-34	1.7
Cc1cccc([C@@H]2C[C@H]3CN(Cc4cccc(Cl)c4)C(=O)[C@]34CCCN24)n1	-7	-0.4	-0.8	0.7	3	-2	35	-0.3
Cc1c(Cl)c([N+](=O)[O-])nn1CC(=O)NCc1cccs1	-4	1.4	0.5	-1.6	-3	6	1	2.7
Cc1ccc(S(=O)(=O)NCC(C)n2nc(C)nc2C)cc1 (configuration not stated)	6	2.0	0.0	-2.7	-3	-1	-7	3.0
Cc1ccccc1NC(=O)CSc1nnc(CNC(=O)c2ccco2)n1C	5	x	0.6	2.7	-2	-1	-8	0.1
COCc1cc(C)[nH]c(=O)c1C(=O)NC12CC3CC(CC(C3)C1)C2	4	-0.7	-4.2	-2.1	-2	33	-2	-1.9
Cc1ccc(N2CC(C(=O)NCc3ccc4c(c3)OCO4)CC2=O)cc1C (configuration not stated)	3	2.7	-0.9	-2.3	-2	-28	6	1.8
CCN(CC)c1ccc(C(=S)N2CCN(c3ccccc3)CC2)cc1	12	-3.3	1.0	-0.3	-7	2	22	3.9
CC(=O)c1ccc(N2CCN(C(=S)Nc3ccccc3F)CC2)cc1	16	1.9	0.3	1.8	-5	3	-25	6.6
C[C@@H]1CN(C(=O)c2nc3ccc(Cl)cn3c2CN2CCc3sccc3C2)C[C@H](C)O1	-18	-3.9	0.5	-2.6	-7	-14	0	0.8
CCN1CCN(CCNC(=O)c2ccc(CS(=O)c3ccc(Cl)cc3)o2)CC1 (configuration not stated)	1	2.1	1.0	0.4	-4	8	-3	-2.9
Cc1cc(C)cc(NC(=O)C(OC(=O)c2cccs2)c2ccccc2)c1 (configuration not stated)	-1	1.7	0.4	-1.8	5	-3	-8	-0.4
CCC(=O)c1ccc(OCC(O)CN2C(=O)NC(C)(C)C2=O)cc1 (configuration not stated)	0	-2.7	-0.9	-1.9	-2	-3	5	2.3

# Carrying on:
SMILES	Beta2AR agonist	LANA-H2A inh	A1 inh	RanGTP-Impb inh	Beta cell apopt	Calb FLC	T cruzi repl	UCH37 DUB inh
CCCn1c(CC)nc([N+](=O)[O-])c1Sc1ccc(F)cc1	4	3.1	-0.2	-0.4	-9	113*	5	7.4
COc1cccc2cc(C(=O)NCc3ccccn3)c(=O)oc12	1	1.9	-2.3	-2.9	-2	6	-8	-1.5
Cc1cc(C)cc(NC(=O)C(=O)NCc2ccccn2)c1	0	0.2	-0.6	-0.2	-10	-8	5	0.8
Cc1ccc(NCc2nnc(SCC(=O)N(Cc3ccccc3)C(C)(C)C)o2)c(C)c1	-10	2.9	-0.7	-1.6	-1	17	27	-1.7
COc1ccc(C(CC(=O)Nc2ccc(F)cc2)c2ccccc2)cc1 (configuration not stated)	-10	-3.1	1.7	-6.0	-1	12	17	3.2
CC(C)C(=O)Nc1ccc(-c2nc3ccccc3c(=O)o2)cc1	-7	1.9	-3.3	1.1	-9	5	-6	-3.0
CC(C)(CSc1ccccn1)NS(=O)(=O)c1ccc(Cl)cc1	-8	0.9	0.6	-1.7	-5	13	9	6.2
O=C(NN=C1CCCC1)c1sc2ccccc2c1Cl	-3	0.7	0.1	2.3	-1	2	-9	2.4
Cc1csc(NC(=O)CSC2=NCCS2)n1	-8	-3.4	-0.1	3.8	-5	0	-10	2.5
